Screening data deposited in PubChem BioAssay by Broad Institute.
ID4 binder: ID4 (human) binding. P47928. small molecule microarray, Flag-ID4 binding, fluorescence F/B. calls only. AID 624137. 31,000 tested, 1.2% active;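 active means spot signal over background at p below 0.07 in all four prints; compounds were printed on slides so no solution concentration is given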;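 further: a binder raises fluorescence above local background on the spot; about 2 pmol printed per array spot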
Target sequence (P47928 whole entry, looked up): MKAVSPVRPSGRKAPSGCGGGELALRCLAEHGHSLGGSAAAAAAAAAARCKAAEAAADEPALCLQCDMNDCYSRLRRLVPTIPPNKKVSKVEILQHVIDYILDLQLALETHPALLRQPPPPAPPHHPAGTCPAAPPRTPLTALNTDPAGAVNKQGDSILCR
STAT3 binder: STAT3 (human) binding; P40763; Small molecule microarray, His-STAT3 binding, anti-His fluorescence; 17,000 tested, 0.2% active; calls only; AID 624138;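 active means compounds whose four printed spots each show fluorescence over background unusually high for their array block, chance value under 7%; compounds were printed on slides so no solution concentration is given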;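 further: about 2 pmol printed per array spot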
mut p53 SMM: binders of human mutant p53 | AID 624136 | small molecule microarray binding, anti-GST fluorescence | 17,000 tested, 0.4% active | calls only;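 active means compounds whose four printed spots each glow above background more than chance allows, each with a p-value under 7%; compounds were printed on slides so no solution concentration is given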;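 further: about 2 pmol printed per array spot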
Myc binder: c-Myc (human) binding; AID 624141; 17,000 tested, 1.5% active; calls only; small molecule microarray, His-c-Myc binding, anti-His fluorescence; P01106;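 active means spot fluorescence over background with P-value below 7% in all four replicate spots, showing protein binding; compounds were printed on slides so no solution concentration is given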;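 further: score is binary with 100 for all four spots passing and 0 otherwise; about 2 pmol printed per array spot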
Target sequence (P01106 whole entry, looked up): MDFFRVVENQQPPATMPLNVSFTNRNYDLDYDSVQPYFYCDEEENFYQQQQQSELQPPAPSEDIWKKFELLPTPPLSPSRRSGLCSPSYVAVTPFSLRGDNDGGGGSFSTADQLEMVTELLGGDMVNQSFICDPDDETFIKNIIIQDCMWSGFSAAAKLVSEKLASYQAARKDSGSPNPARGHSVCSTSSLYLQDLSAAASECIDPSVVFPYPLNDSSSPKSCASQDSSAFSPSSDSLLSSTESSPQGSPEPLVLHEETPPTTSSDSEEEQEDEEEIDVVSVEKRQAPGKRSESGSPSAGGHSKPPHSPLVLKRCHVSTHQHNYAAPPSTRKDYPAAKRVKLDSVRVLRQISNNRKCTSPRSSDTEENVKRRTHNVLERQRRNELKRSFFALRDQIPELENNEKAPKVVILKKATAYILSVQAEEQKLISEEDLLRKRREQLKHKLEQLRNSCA
Calls only; i = inactive; . = no result given; + = active, no number.

SMILES | ID4 binder | STAT3 binder | mut p53 SMM | Myc binder
CNC[C@@H]1Oc2ccc(NC(=O)CCC(F)(F)F)cc2C(=O)N([C@H](C)CO)C[C@@H]1C | i | i | i | i
C[C@@H]1CN([C@@H](C)CO)C(=O)CCCn2nncc2CO[C@@H]1CN(C)C | i | i | i | i
O=C(/C=C/c1ccc(O)cc1)NCCCCN(CCCN(CCCNC(=O)/C=C/c1ccc(O)cc1)C(=O)/C=C/c1ccc(O)cc1)C(=O)/C=C/c1ccc(O)cc1 | . | i | i | i
Cc1noc(C)c1S(=O)(=O)Nc1ccc2c(c1)CC(=O)N([C@@H](C)CO)C[C@H](C)[C@@H](CN(C)C)O2 | i | i | i | i
CCOC(=O)c1ccc(OC(=O)CCCCCN=C(N)N)cc1 | . | i | i | i
C[C@@H]1CN([C@H](C)CO)C(=O)c2cccc(NC(=O)Nc3ccccc3)c2O[C@@H]1CN(C)C(=O)NC1CCCCC1 | i | i | i | i
COc1cc(NC(=O)COc2ccccc2Cl)ccc1NC(=O)c1cc2ccccc2o1 | i | i | i | i
COc1ccc(NC(=O)Nc2cccc3c2O[C@@H](CN(C)S(=O)(=O)c2cccs2)[C@H](C)CN([C@H](C)CO)C3=O)cc1 | i | i | i | i
COc1ccc(S(=O)(=O)Nc2cccc3c2O[C@@H](CN(C)Cc2ccncc2)[C@H](C)CN([C@@H](C)CO)C3=O)cc1 | i | i | i | i
O=C(Nc1cccc(Cn2cccn2)c1)c1cc(-c2ccccc2)nc2ccccc12 | i | i | i | i
CC(C)NC(=O)N(C)C[C@H]1OCCCC[C@H](C)Oc2ccc(NC(=O)Nc3ccc(F)cc3)cc2C(=O)N([C@@H](C)CO)C[C@H]1C | i | i | i | i
Cc1ccc(S(=O)(=O)Nc2ccc3c(c2)C(=O)N([C@@H](C)CO)C[C@@H](C)[C@H](CN(C)S(=O)(=O)c2ccccc2)O3)cc1 | . | i | i | i
O=C(N1CCOCC1)[C@@]1(CCS(=O)(=O)c2ccccc2)COC(c2ccc(OCCCO)cc2)=N1 | . | i | i | i
COc1ccc(S(=O)(=O)Nc2ccc3c(c2)CC(=O)N([C@H](C)CO)C[C@H](C)[C@H](CN(C)C(=O)Nc2ccc4c(c2)OCO4)O3)cc1 | . | i | i | i
Cc1cccc(NC(=O)CSc2nncn2C)c1 | i | i | i | i

Reprinted at random: six compounds from above
SMILES | ID4 binder | STAT3 binder | mut p53 SMM | Myc binder
O=C(Nc1cccc(Cn2cccn2)c1)c1cc(-c2ccccc2)nc2ccccc12 | i | i | i | i
COc1ccc(S(=O)(=O)Nc2cccc3c2O[C@@H](CN(C)Cc2ccncc2)[C@H](C)CN([C@@H](C)CO)C3=O)cc1 | i | i | i | i
CNC[C@@H]1Oc2ccc(NC(=O)CCC(F)(F)F)cc2C(=O)N([C@H](C)CO)C[C@@H]1C | i | i | i | i
C[C@@H]1CN([C@@H](C)CO)C(=O)CCCn2nncc2CO[C@@H]1CN(C)C | i | i | i | i
CC(C)NC(=O)N(C)C[C@H]1OCCCC[C@H](C)Oc2ccc(NC(=O)Nc3ccc(F)cc3)cc2C(=O)N([C@@H](C)CO)C[C@H]1C | i | i | i | i
Cc1ccc(S(=O)(=O)Nc2ccc3c(c2)C(=O)N([C@@H](C)CO)C[C@@H](C)[C@H](CN(C)S(=O)(=O)c2ccccc2)O3)cc1 | . | i | i | i

The list continues:
SMILES | ID4 binder | STAT3 binder | mut p53 SMM | Myc binder
CCO[C@@H]1OC(C(=O)N2CCN(Cc3ccc4c(c3)OCO4)CC2)=C[C@H](C)[C@H]1CCCO | i | i | i | i
CCOC(=O)c1ccc(NC(=O)CSc2ncccn2)cc1 | i | i | i | i
COc1ccc(S(=O)(=O)Nc2ccc3c(c2)C(=O)N([C@H](C)CO)C[C@@H](C)[C@H](CN(C)Cc2ccc(C(=O)O)cc2)O3)cc1 | i | i | i | i
C[C@@H]1CN([C@@H](C)CO)C(=O)c2cc(NC(=O)c3ccncc3)ccc2O[C@@H](C)CCCCO[C@@H]1CN(C)C(=O)CCC(F)(F)F | i | i | i | i
CC1(C)CC(NC(=O)CC(c2ccc(F)cc2)c2ccco2)CCO1 (configuration not stated) | i | i | i | i
C[C@@H]1CN([C@@H](C)CO)C(=O)CCCn2nncc2CO[C@@H]1CN(C)Cc1ccc2c(c1)OCCO2 | . | i | i | i
C[C@@H]1CN([C@H](C)CO)C(=O)Cc2cc(NC(=O)c3ccncc3)ccc2O[C@@H]1CN(C)CC1CCCCC1 | . | i | i | i
Cc1c(CNC(=S)Nc2cccc([N+](=O)[O-])c2)cnn1C | i | i | i | i
CCCCn1c(SCC(N)=O)nc2c1c(=O)n(C)c(=O)n2C | i | i | i | i
C[C@@H]1CCCCO[C@H](CN(C)C(=O)c2ccncc2)[C@H](C)CN([C@H](C)CO)C(=O)c2cc(NS(=O)(=O)c3ccccc3)ccc2O1 | i | i | i | i
C[C@H](CO)N1C[C@H](C)[C@H](CN(C)C(=O)Nc2cccc3ccccc23)Oc2ccc(NC(=O)CCCN(C)C)cc2C1=O | i | i | i | i
CC(C)NC(=O)Nc1ccc2c(c1)C(=O)N([C@H](C)CO)C[C@@H](C)[C@@H](CN(C)C)OCCCC[C@@H](C)O2 | i | i | i | i
C[C@@H]1CN([C@H](C)CO)C(=O)c2cc(NS(=O)(=O)c3ccc(F)cc3)ccc2O[C@@H]1CN(C)C | . | i | i | i
C[C@@H]1CN([C@@H](C)CO)C(=O)c2cc(NC(=O)Cc3ccccc3)ccc2O[C@H]1CN(C)S(=O)(=O)c1cccs1 | . | i | i | i
COc1ccc(S(=O)(=O)Nc2cccc3c2O[C@H](CN(C)Cc2ccc(C(=O)O)cc2)[C@H](C)CN([C@@H](C)CO)C3=O)cc1 | i | i | i | i
CNC[C@H]1Oc2ccc(NS(=O)(=O)c3ccccc3)cc2C(=O)N([C@@H](C)CO)C[C@@H]1C | i | i | i | i
C[C@@H]1CN([C@@H](C)CO)C(=O)c2cc(NC(=O)CCCN(C)C)ccc2O[C@@H](C)CCCCO[C@@H]1CN(C)S(=O)(=O)c1cn(C)cn1 | + | i | i | i
C[C@@H]1CN([C@H](C)CO)C(=O)c2cc(NC(=O)NC3CCCCC3)ccc2O[C@H]1CN(C)Cc1ccc2c(c1)OCO2 | i | i | i | i
C[C@H]1CN([C@@H](C)CO)C(=O)c2cc(NC(=O)Nc3ccc(F)cc3)ccc2O[C@H]1CN(C)Cc1ccncc1 | i | i | i | i
O=C(O)CCS(=O)(=O)c1nc(-c2ccccc2)cc(C(F)(F)F)n1 | i | i | i | i
C[C@H]1CN([C@@H](C)CO)C(=O)Cc2cc(NC(=O)Cc3ccccc3)ccc2O[C@H]1CN(C)S(=O)(=O)c1cccs1 | i | i | i | i
C[C@H](CO)N1C[C@H](C)[C@H](CN(C)S(=O)(=O)c2ccccc2)OCCCC[C@H](C)Oc2ccc(NC(=O)CCC(F)(F)F)cc2C1=O | i | i | i | i
CNC[C@H]1Oc2ccc(NC(=O)Cn3cnnn3)cc2CC(=O)N([C@@H](C)CO)C[C@@H]1C | i | i | i | i
Cc1ccc(S(=O)(=O)Nc2ccc3c(c2)C(=O)N([C@@H](C)CO)C[C@H](C)[C@H](CN(C)S(=O)(=O)c2ccc(F)cc2)OCCCC[C@@H](C)O3)cc1 | . | i | i | i
COc1ccc([C@@H]2CC(=O)c3c(O)cc(O[C@@H]4O[C@H](CO[C@@H]5O[C@@H](C)[C@H](O)[C@@H](O)[C@H]5O)[C@@H](O)[C@H](O)[C@H]4O)cc3O2)cc1O | i | i | i | i
Cc1noc(C)c1C(=O)NCc1ccco1 | i | i | i | i
CNC[C@H]1Oc2ccc(NC(=O)Nc3ccc(F)cc3)cc2C(=O)N([C@@H](C)CO)C[C@@H]1C | i | i | i | i
CNC[C@H]1Oc2c(NS(=O)(=O)c3c(C)noc3C)cccc2C(=O)N([C@@H](C)CO)C[C@H]1C | i | i | i | i
CNC[C@H]1Oc2c(NC(=O)Nc3ccc(C(F)(F)F)cc3)cccc2C(=O)N([C@@H](C)CO)C[C@@H]1C | i | i | i | i
C[C@@H]1CCCCO[C@H](CN(C)Cc2ccc(Cl)c(Cl)c2)[C@H](C)CN([C@@H](C)CO)C(=O)c2cc(NC(=O)NC3CCCCC3)ccc2O1 | . | i | i | i
C[C@@H]1CCCCO[C@H](CN(C)C)[C@H](C)CN([C@H](C)CO)C(=O)c2cc(NC(=O)C3CCCCC3)ccc2O1 | i | i | i | i
C[C@@H]1CN([C@H](C)CO)C(=O)CCCn2nncc2CO[C@@H]1CN(C)C(=O)Nc1ccccc1C(F)(F)F | i | i | i | i
C[C@H]1CCCCO[C@@H](CN(C)Cc2ccc3c(c2)OCO3)[C@@H](C)CN([C@@H](C)CO)C(=O)c2cc(NS(=O)(=O)c3ccccc3)ccc2O1 | i | i | i | i
COc1ccccc1CN(C)C[C@H]1OCc2cnnn2CCCC(=O)N([C@H](C)CO)C[C@H]1C | i | i | i | i
C[C@H]1CN([C@@H](C)CO)C(=O)Cc2cc(NC(=O)CCN3CCOCC3)ccc2O[C@H]1CN(C)C(=O)Nc1cccc2ccccc12 | i | i | i | i
C[C@@H]1CN([C@H](C)CO)C(=O)c2cc(NC(=O)Nc3ccccc3)ccc2O[C@@H]1CN(C)Cc1ccncc1 | i | i | i | i
Cc1noc(C)c1S(=O)(=O)Nc1ccc2c(c1)C(=O)N([C@H](C)CO)C[C@H](C)[C@H](CN(C)C(=O)Nc1ccccc1)O2 | i | i | i | i
COc1ccc(S(=O)(=O)Nc2cccc3c2O[C@@H](CN(C)C)[C@@H](C)CN([C@H](C)CO)C3=O)cc1 | i | i | i | i
C[C@H]1CN([C@@H](C)CO)C(=O)c2cccc(NS(=O)(=O)c3ccc(Cl)cc3)c2O[C@H]1CN(C)C | i | i | i | i
Cc1noc(C)c1NC(=O)Nc1ccc2c(c1)C(=O)N([C@H](C)CO)C[C@@H](C)[C@H](CN(C)C(=O)Nc1ccc(C(F)(F)F)cc1)OCCCC[C@@H](C)O2 | . | i | i | i
C[C@@H]1CCCCO[C@H](CN(C)C(=O)c2ccccc2)[C@H](C)CN([C@@H](C)CO)C(=O)c2cc(NS(C)(=O)=O)ccc2O1 | i | i | i | i
C[C@@H]1CCCCO[C@H](CN(C)C(=O)Nc2cccc3ccccc23)[C@@H](C)CN([C@@H](C)CO)C(=O)c2cc(NC(=O)c3ccncc3)ccc2O1 | i | i | i | +
COc1ccc(C(=O)O[C@H]2CC(C)=CCC3(C)CC[C@@](O)(C(C)C)[C@H]23)cc1 (some centres not stated) | i | i | i | i
C[C@@H]1CCCCO[C@H](CN(C)Cc2ccc(C(=O)O)cc2)[C@H](C)CN([C@@H](C)CO)C(=O)c2cc(NC(=O)CCCN(C)C)ccc2O1 | . | i | i | i
C[C@@H]1CN([C@@H](C)CO)C(=O)c2cccc(NS(C)(=O)=O)c2O[C@H]1CN(C)Cc1ccc(Cl)c(Cl)c1 | i | i | i | i
CC(C)=CCn1cnc(=N)c2[nH]cnc21 | i | i | i | i
C[C@@H]1CN([C@H](C)CO)C(=O)c2cccc(NC(=O)Nc3ccc(C(F)(F)F)cc3)c2O[C@H]1CN(C)Cc1ccncc1 | i | i | i | i
Cc1ccc(C(=O)Nc2sc3c(c2C#N)CCCC3)cc1S(=O)(=O)N1CCOCC1 | i | i | i | i
COc1ccc2c3c1OC1CC(O)C=CC31CCN(C)C2 (configuration not stated) | . | i | i | i
O=C(CCCC(=O)Nc1ccccc1)Nc1ccccc1 | i | i | i | i
C[C@H]1CN([C@@H](C)CO)C(=O)Cc2cc(NC(=O)CCN3CCOCC3)ccc2O[C@H]1CN(C)S(=O)(=O)c1ccccc1 | i | i | i | i
C[C@@H]1CN([C@H](C)CO)C(=O)c2cccc(NS(=O)(=O)c3ccccc3)c2O[C@H]1CN(C)S(=O)(=O)c1ccc(Cl)cc1 | . | i | i | i
COc1ccc(CN(C)C[C@@H]2Oc3ccc(NC(=O)CCC(F)(F)F)cc3C(=O)N([C@H](C)CO)C[C@@H]2C)cc1 | i | i | i | i
CC(C)NC(=O)N(C)C[C@H]1OCCCC[C@@H](C)Oc2ccc(NS(C)(=O)=O)cc2C(=O)N([C@@H](C)CO)C[C@H]1C | i | i | i | i
Cc1ccc(S(=O)(=O)Nc2cccc3c2O[C@@H](CN(C)S(=O)(=O)c2cn(C)cn2)[C@@H](C)CN([C@@H](C)CO)C3=O)cc1 | . | i | i | i
COc1cc(S(=O)(=O)NC2CC(C)(C)NC(C)(C)C2)c(OC)cc1Br | i | i | i | i
Cc1noc(C)c1S(=O)(=O)Nc1ccc2c(c1)C(=O)N([C@H](C)CO)C[C@H](C)[C@@H](CN(C)C(=O)Cc1ccccc1)OCCCC[C@H](C)O2 | i | i | i | i
C[C@@H]1CN([C@@H](C)CO)C(=O)c2cc(NC(=O)Nc3ccc(F)cc3)ccc2O[C@@H]1CN(C)C | i | i | i | i
O=C(O)C1=C[C@H](c2ccc3c(c2)OCO3)C[C@H](OCc2ccc(CO)cc2)O1 | i | i | i | i
CC1(C)CC[C@@]2(C(=O)O)C(C1)C1=CCC3[C@@]4(C)CC[C@H](O[C@@H]5O[C@H](C(=O)O)[C@@H](O[C@@H]6OC[C@@H](O)[C@H](O)[C@H]6O)[C@H](O)[C@H]5O)C(C)(C)C4CC[C@@]3(C)[C@]1(C)C[C@H]2O (some centres not stated) | i | i | i | i
